# H5N1 CPE – antiviral screen in MDCK cells, H5N1 avian flu | AID 740 | inhibition, % at 50 µM | cytopathic effect, luminescence, 72 h; stronger effect = higher value; no value below 0 was filed and about half of the inactive calls have no number; reference of the scale not given here | hit rate 0.07% among 96,000; in the data active means inhibition above about 25%
# * = called active by the depositor; i = inactive. A portion of the library. The share of hits here may be higher or lower than overall.
SMILES,H5N1 CPE
CCCCCn1c(N)c(C(=O)NCCN2CCOCC2)c2nc3ccccc3nc21,i
CCCC1CCc2c(c3ccccc3[nH]c2=O)O1 (configuration not stated),3.4
CCOC(=O)c1cccc(NC(=O)/C(=C\c2ccccc2)NC(=O)c2ccccc2Cl)c1,i
CCn1cc(C(=O)NCc2ccco2)c(=O)c2cc(S(=O)(=O)N3CC(C)CC(C)C3)ccc21 (configuration not stated),1.4
c1ccc2c(c1)nnn1c3ccccc3nc21,i
Cc1oc(-c2ccc(Cl)cc2)nc1CS(=O)CC(=O)NCc1cccs1 (configuration not stated),0.5
O=C(OCc1ccccc1)/C(=C/c1ccc(Cl)cc1)NC(=O)c1ccccc1Cl,i
O=C(NCCc1c[nH]c2ccccc12)C1Cc2ccccc2CN1C(=O)c1ccco1 (configuration not stated),0.6
CCC(C)(C)NC(=O)CN(C(=O)CNS(=O)(=O)c1ccc(C)cc1)c1ccc2c(c1)OCCO2,i
C=CCn1c(O)c(CN2CCN(Cc3ccccc3)CC2)c(C)c(C#N)c1=O,i
CC1Cc2ccccc2N1C(=O)CSc1nnc(NC(=O)Cc2cccs2)s1 (configuration not stated),i
COc1cccc(C(c2nnnn2C(C)(C)C)N2CCN(C3CCCCC3)CC2)c1OC (configuration not stated),i
CCn1c2ccccc2c2nnc(SCC(N)=O)nc21,15
CC(=O)Nc1ccc(Oc2sc(C(=O)c3ccccc3)c(N)c2C#N)cc1,9.0
Cc1c(C(C)NC(=O)Nc2ccc(F)cc2F)cnn1C (configuration not stated),0.6
CC(NC(=O)C(c1ccccc1)c1ccccc1)C(=O)O (configuration not stated),i
O=C(NC1CCCC1)c1ccc2nc[nH]c2c1,0.6
CCCCn1c(NC(=O)c2ccc(Br)o2)c(S(=O)(=O)c2ccccc2)c2nc3ccccc3nc21,0.1
O=C(c1ccc2nc3ccccc3c(=O)n2c1)N1CCN(Cc2ccc3c(c2)OCO3)CC1,0.5
COc1cccc(CNc2ncc(Br)cc2Br)c1O,1.6

# Reprinted from the listing (18 entries):
SMILES,H5N1 CPE
CCCCCn1c(N)c(C(=O)NCCN2CCOCC2)c2nc3ccccc3nc21,i
CCCC1CCc2c(c3ccccc3[nH]c2=O)O1 (configuration not stated),3.4
CCOC(=O)c1cccc(NC(=O)/C(=C\c2ccccc2)NC(=O)c2ccccc2Cl)c1,i
CCn1cc(C(=O)NCc2ccco2)c(=O)c2cc(S(=O)(=O)N3CC(C)CC(C)C3)ccc21 (configuration not stated),1.4
c1ccc2c(c1)nnn1c3ccccc3nc21,i
Cc1oc(-c2ccc(Cl)cc2)nc1CS(=O)CC(=O)NCc1cccs1 (configuration not stated),0.5
O=C(OCc1ccccc1)/C(=C/c1ccc(Cl)cc1)NC(=O)c1ccccc1Cl,i
O=C(NCCc1c[nH]c2ccccc12)C1Cc2ccccc2CN1C(=O)c1ccco1 (configuration not stated),0.6
CCC(C)(C)NC(=O)CN(C(=O)CNS(=O)(=O)c1ccc(C)cc1)c1ccc2c(c1)OCCO2,i
C=CCn1c(O)c(CN2CCN(Cc3ccccc3)CC2)c(C)c(C#N)c1=O,i
CC1Cc2ccccc2N1C(=O)CSc1nnc(NC(=O)Cc2cccs2)s1 (configuration not stated),i
COc1cccc(C(c2nnnn2C(C)(C)C)N2CCN(C3CCCCC3)CC2)c1OC (configuration not stated),i
CCn1c2ccccc2c2nnc(SCC(N)=O)nc21,15
CC(=O)Nc1ccc(Oc2sc(C(=O)c3ccccc3)c(N)c2C#N)cc1,9.0
Cc1c(C(C)NC(=O)Nc2ccc(F)cc2F)cnn1C (configuration not stated),0.6
CC(NC(=O)C(c1ccccc1)c1ccccc1)C(=O)O (configuration not stated),i
O=C(NC1CCCC1)c1ccc2nc[nH]c2c1,0.6
CCCCn1c(NC(=O)c2ccc(Br)o2)c(S(=O)(=O)c2ccccc2)c2nc3ccccc3nc21,0.1

# (cont.)
SMILES,H5N1 CPE
Cc1cc(C)n(C(=O)CCC(=O)Nc2ccc(C)c(C)c2)n1,i
CC(C)NS(=O)(=O)c1cccc2nsnc12,i
CC(=O)c1c(C)[nH]c(C(=O)NCc2ccccc2)c1C,0.3
O=C1C(Cl)=C(N2CCCCCC2)C(=O)N1c1ccccc1,0.1
CNS(=O)(=O)c1cc(O)c2c(S(=O)(=O)NC)cccc2c1,i
CC1(C)CC(n2c(NCCO)nc3c(c2=O)C2(CCCC2)Cc2ccccc2-3)CCO1 (configuration not stated),i
COc1ccccc1NC(=O)c1[nH]c(C)c(C(C)=O)c1C,0.2
CN(NC(=O)c1ccc(Cl)cc1)c1nc(-c2ccccc2)nnc1C(F)(F)F,2.8
NC(=O)c1ccsc1NC(=O)CSc1ccccc1F,1.9
Cc1nc(NCC2CCCO2)nc2c1C(=O)CC(C)C2 (configuration not stated),i
Nn1cc(-c2ccccc2)nc1SCC(=O)N1CCN(S(=O)(=O)c2ccc(Cl)cc2)CC1,i
O=c1c(-c2cc3ccccc3o2)[n+]([O-])c2ccccc2n1OCc1ccccn1,i
CC1CCCCN1S(=O)(=O)c1ccc(C(=O)Nc2nnc(-c3cccs3)o2)cc1 (configuration not stated),2.1
CCC(=O)Nc1ccc(S(=O)(=O)NCCc2ccccc2)cc1,0.7
CCOC(=O)c1sc(NC(=O)CSc2nnnn2-c2ccccc2)nc1C,i
CCC(C)(C)c1ccc(Oc2ccc(NC(=O)COC(=O)C3=COCCO3)cc2)cc1,i
O=C(Nc1ccc(Cl)cc1Cl)C1CCC(=O)N1Cc1ccccc1Cl (configuration not stated),i
O=C(NCc1cccnc1)c1nnc(Cc2ccc(F)cc2)o1,i
O=C(CN1CCN(c2ccc(F)cc2)CC1)N1CCOCC1,i
CSc1ccc(Cl)c(C(=O)OCC(=O)NCc2ccco2)c1,0.3
COc1cc(OC)c(C2=NOC(C(=O)N3CCCc4ccccc43)C2)cc1Cl (configuration not stated),2.6
O=C(CSCc1c(Cl)cccc1Cl)NCC1CCCO1 (configuration not stated),0.1
CCN(CC)c1nc(N)nc(NS(=O)(=O)c2ccc(Cl)cc2)n1,0.6
Cc1onc(-c2ccccc2)c1C(=O)Nc1nnc(-c2ccncc2)s1,i
CCCOC(=O)C1C2C=CC3(CN(c4ccc(Cl)c(F)c4)C(=O)C13)O2 (configuration not stated),0.4
COc1ccc(-n2c(-c3ccccc3)cc3c2CCCC3=O)cc1,1.4
CCN1CCCC1Cn1cnc2c([nH]c3ccc(C)cc32)c1=O (configuration not stated),i
Nn1c(SC/C=C/c2ccccc2)nnc1-c1ccco1,0.2
COCC(C)NS(=O)(=O)c1ccc(OC)cc1 (configuration not stated),i
Cn1c(=O)c2ncn(CC(=O)NCCOc3ccc(C(C)(C)C)cc3)c2n(C)c1=O,i
Cc1c(-c2nc(N)nc(Nc3ccccc3F)n2)oc2ccccc12,0.9
CCc1ccc(-c2nnn(Cc3nc4ccccc4s3)n2)cc1,0.1
Cc1ccccc1Oc1ncnc2sccc12,3.9
COc1cccc(-c2nc(CS(=O)CC(=O)NC3CCCC3)c(C)o2)c1 (configuration not stated),i
COC(=O)C1C(=O)C2=C(CC1C)NC(=O)CC2c1cccc(C)c1 (configuration not stated),i
CC12CCC(C(=O)N(c3ccccn3)c3ccccn3)(OC1=O)C2(C)C (configuration not stated),4.0
CCn1c(COc2ccccc2C)nnc1SCC(=O)N1CCC(C)CC1,i
O=C(NC1(C(F)(F)F)C(=O)Nc2c1c(=O)[nH]c(=O)n2Cc1ccco1)C1CCCCC1 (configuration not stated),0.6
Cc1cc(-c2ccccc2)[nH]c(=O)c1S(=O)(=O)c1ccccc1,i
Cc1cc(=O)c2ccc3ccccc3c2[nH]1,0.5
CCOC(=O)CN1C(=O)C(Sc2n[nH]c(-c3ccccc3)n2)CCc2ccccc21 (configuration not stated),0.1
Cc1ccc(C)c(NC2=CC(=O)CC(C)(C)C2)c1C#N,i
O=C(Nc1cccc(Cl)c1)Nc1nc(-c2ccc(Cl)cc2)cs1,0.6
COc1ccc(Cn2c(=O)oc3ccc(C)cc32)cc1OC,0.8
Cc1ccc(NC(=O)Cn2c(=O)n(Cc3ccco3)c(=N)c3c4c(sc32)COC(C)(C)C4)cc1,i
O=C(NCc1ccco1)c1nc2nc(-c3cccs3)cc(C(F)(F)F)n2n1,2.7
COc1ccc(NC(=O)Nc2ccc(Cc3ccncc3)cc2)cc1OC,i
CN1C(=O)CC(N2CCN(c3ccc(Cl)c(Cl)c3)CC2)C1=O (configuration not stated),i
Fc1ccccc1OCCCCSc1ncccn1,i
CC(=O)c1ccc(C#CC(C)(C)O)s1,0.3
COc1ccc2cc(C(c3nnnn3C(C)(C)C)N3CCSCC3)c(=O)[nH]c2c1 (configuration not stated),i
COc1ccc(S(=O)(=O)N(C)CC(=O)Nc2ccccc2SC)cc1Cl,0.7
Cc1ccc(-c2cc(C(=O)NCc3ccc4c(c3)OCO4)no2)cc1,i
C=CCn1c(C)cc(C(=O)CSc2nc3ccccc3o2)c1C,0.3
O=C(NNC(=O)c1ccccc1-n1cccc1)c1ccc(Cl)cc1Cl,0.1
Nc1nc(SCC(=O)Nc2cc(-c3ccccc3)nn2-c2ccccc2)n[nH]1,i
O=c1cc(N2CCOCC2)c2ccccc2o1,0.1
C=CCOn1c(=O)c(-c2ccc(OC)c(OC)c2)[n+]([O-])c2ccccc21,1.2
O=C(O)c1ccc(CSc2nnnn2C2CCCCC2)cc1,0.4
Cc1cc(C)nc(SCC(=O)NC2=NC(=O)C(C)S2)n1 (configuration not stated),i
# (continued)
SMILES,H5N1 CPE
Cc1nn(C(=O)c2ccco2)c(C)c1Sc1ccc([N+](=O)[O-])cc1,i
CC(C(=O)N1CC2(C)CC1CC(C)(C)C2)N1C(=O)c2ccccc2C1=O (configuration not stated),i
COc1cc(NC(=O)c2ccc(Br)o2)c(C(=O)O)cc1OC,1.1
Cc1ccc(NC(=S)NNC(=O)c2ccco2)cc1,i
Cc1cc[n+](-c2nc([O-])sc2/C=N/Nc2ccc([N+](=O)[O-])cc2)cc1,0.8
O=C(Nc1cccnc1)c1ccccc1-c1nc(-c2ccccc2F)no1,i
Cn1c(C2CCCN2C(=O)OC(C)(C)C)n[nH]c1=S (configuration not stated),0.5
CCOc1ccc(NC(=O)c2cccc3c2C(=O)N(CCOC)C3)cc1,i
O=C(NCc1ccc2c(c1)OCO2)c1cnc2n(c1=O)CCS2,i
CCn1c(Cc2ccccc2)nnc1SCC(=O)NC(C)(C)C,0.9
Cc1cccc(/C(N)=N/OC(=O)CCCN2C(=O)c3ccccc3C2=O)c1,0.3
Cc1cc(NC(=O)CSc2nc(-c3cccnc3)ccc2C#N)no1,0.9
CC1(C)CN=C(Nc2ccccc2C(F)(F)F)S1,i
CC(C)C(NC(=O)c1ccccc1)C(=O)NCc1ccccn1 (configuration not stated),1.3
COc1ccccc1CNC(=O)C1COc2ccccc2O1 (configuration not stated),2.8
CC(=O)Nc1ccc(C(=O)CS(=O)(=O)c2ccc(C)cc2)cc1,1.5
COc1ccc(OC)c(NC(=O)CCN2CC(C)OC(C)C2)c1 (configuration not stated),0.8
COc1cc(COc2ccc3c(C)c(Cc4ccccc4)c(=O)oc3c2)cc(OC)c1OC,0.3
NS(=O)(=O)c1cccn1-c1ncc(C(F)(F)F)cc1Cl,i
Cc1ccc2[nH]c3c(c2c1)CN(C(=O)CN1CCN(c2cccc(C)c2C)CC1)CC3,i
Cc1nc2ccccc2n1C1CCN(CC(=O)NCc2ccc(F)cc2)CC1,0.6
CCOC(=O)N1CCC(NC(=O)c2cnn3cccnc23)CC1,i
CSc1ccccc1C(=O)NCCCOC(C)C,i
COc1ccc(N(CC(=O)Nc2ccc3c(c2)OCO3)S(=O)(=O)c2c(C)nn(C)c2C)cc1,i
O=c1[nH]c2cc3c(cc2cc1C(c1nnnn1Cc1ccccc1)N1CCCc2ccccc21)OCO3 (configuration not stated),i
Cc1cccc(C)c1NC(=O)C1(N(Cc2ccco2)C(=O)CC2NC(=O)NC2=O)CCCCC1 (configuration not stated),0.5
CC1CCCc2sc3nc(NCc4ccco4)n4ncnc4c3c21 (configuration not stated),i
O=C(N1CCCCCC1)N1CCN(S(=O)(=O)N2CCOCC2)CC1,i
Cc1ccc(OCCN2CCN(C(=O)CCC(=O)Nc3nnc(C(C)C)s3)CC2)cc1,0.8
CCN1C(=O)CSc2ccc(C(=O)NCc3ccco3)cc21,i
CC(C(=O)N1CCOCC1)N1C(=O)c2ccccc2C1=O (configuration not stated),i
FC(F)(F)c1ccc2c(c1)NP(=S)(N1CCOCC1)c1nccn1-2 (configuration not stated),0.2
COCCN(C(C)=O)c1nnc(-c2ccccn2)s1,2.4
Cc1[nH]c2ccccc2c(=O)c1SC(F)(F)C(F)C(F)(F)F (configuration not stated),i
COc1ccc(Nc2nc(N)nc(CN3CCOCC3)n2)cc1,0.6
CCn1c(SCc2nc3sc(C(=O)O)c(C)c3c(=O)[nH]2)nc2ccccc21,1.6
Cc1nnc(SCCC(=O)Nc2nc(-c3ccccc3)ns2)s1,i
COc1ccc2c(c1)c(=O)oc1cc(OCC(=O)NC3CC3)ccc12,0.5
Cc1cccc(Cn2cnc3ccccc32)c1,0.1
COc1ccccc1C1=NOC(Cn2c(=O)c3c(ncn3C)n(C)c2=O)C1 (configuration not stated),1.0
COc1ccc(C2CC(=O)N3CN(c4ccc(C)c(Cl)c4)CSC3=C2C#N)cc1 (configuration not stated),i
NS(=O)(=O)c1ccc(NC(=O)CCc2ccccc2)cc1,0.9
CCCCNC(=O)C1CC(=O)N(CCC(C)C)C1 (configuration not stated),i
N#C/C(=C\c1cccc(Oc2ccc(C(F)(F)F)cc2[N+](=O)[O-])c1)c1nc2ccccc2[nH]1,i
CCOC(=O)C(C)n1cnc2c(cnn2-c2ccc(Cl)cc2)c1=O (configuration not stated),i
Cn1c(C(=O)N2CCN(C(=O)c3ccco3)CC2)cc2c(=O)n3ccccc3nc21,7.5
CCOC(=O)c1sc(NS(=O)(=O)c2ccccc2)nc1C,1.4
CCCC(=O)N(c1ccc(OC)cc1)C1C=CS(=O)(=O)C1 (configuration not stated),i
Cc1nn(Cc2ccccc2)c(C)c1CCC(=O)O,0.1
COc1ccc(N(C)S(=O)(=O)c2cccc(C(=O)NCC3CCCO3)c2)cc1 (configuration not stated),i
